CSC inhib = blocks cancer stem cells; cancer stem cell-like cells viability, luminescence; inhibition, % at 7.5 µM; 300,000 tested, 1.1% active;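 active means mean at 75% or more and at least half the replicates too; inconclusive means mean and replicates disagree; tested in HMLE shEcad cells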;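 further: 0% = median of negative and 100% = median of positive control wells; the first replicate is given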
Env fusion inh = inhibitors of HIV Env-mediated cell fusion; HeLa-JRFL Env/CEM21 cell fusion, luciferase; inhibition, % at 12.3 µM; 360,000 tested, 1.1% active;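 active means mean replicate inhibition score of at least 50 and every replicate individually at or above 50; inconclusive means only one of the two criteria met; inactive means mean below 50 and not all replicates reaching 50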;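 further: 0% = plate neutral controls and 100% = maraviroc near 300 nM; one replicate is shown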
PABP polyA inh = PABP-poly(A) binding inhibition | inhibition, % at 35 µM | AID 2014 | PABP-poly(A) RNA binding, fluorescence polarization | P11940 | 290,000 tested, 1% active;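 active means 50% or more with normal probe brightness, or confirmed in later tests; inconclusive means above 50% with abnormal brightness, or retests that disagree; inactive means below 50% or failed in later tests; about a fifth of its hits are not listed in these tables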;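 further: calls also rest on retests at 20 µM and on dose response follow-up; controls were probe without protein and protein plus probe with vehicle; some compounds called inactive have numbers as strong as hits; many hits fall short of the cut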
Target sequence (P11940 whole entry, looked up): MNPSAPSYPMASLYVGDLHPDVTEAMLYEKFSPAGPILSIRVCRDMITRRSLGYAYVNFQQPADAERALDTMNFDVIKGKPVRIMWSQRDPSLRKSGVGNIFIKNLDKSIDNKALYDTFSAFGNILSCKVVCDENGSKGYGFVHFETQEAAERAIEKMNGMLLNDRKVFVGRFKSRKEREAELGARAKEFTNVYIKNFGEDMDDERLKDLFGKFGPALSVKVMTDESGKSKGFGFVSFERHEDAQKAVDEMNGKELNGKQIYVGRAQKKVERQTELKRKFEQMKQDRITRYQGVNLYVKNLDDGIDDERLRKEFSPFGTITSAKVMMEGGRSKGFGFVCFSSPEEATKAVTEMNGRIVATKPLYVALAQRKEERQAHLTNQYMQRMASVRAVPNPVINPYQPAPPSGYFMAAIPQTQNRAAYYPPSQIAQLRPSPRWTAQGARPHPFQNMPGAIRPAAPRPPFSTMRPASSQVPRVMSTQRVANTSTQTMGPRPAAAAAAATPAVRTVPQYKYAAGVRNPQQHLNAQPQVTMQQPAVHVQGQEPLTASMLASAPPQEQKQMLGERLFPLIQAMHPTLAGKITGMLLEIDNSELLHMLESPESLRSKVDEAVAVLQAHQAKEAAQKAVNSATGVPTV
Yeast UUG start = yeast start codon fidelity modulation; S. cerevisiae UUG-firefly luciferase reporter, luminescence/redox ratio; activity score, % at 18.7 µM; 350,000 tested, 0.13% active;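 active means replicate mean at a twofold rise or more, about +100% in these data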;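 further: firefly luciferase made from a UUG start codon reports start codon fidelity; reporter light over untreated wells divided by growth signal over untreated wells; some hits fall short of that in this replicate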
eIF4H inh = inhibitors of RNA binding by human eIF4H; eIF4H fluorescence polarization binding assay; inhibition, % at 35 µM; 290,000 tested, 0.94% active;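 active means 50% or more with normal probe brightness, or confirmed in later tests; inconclusive means above 50% with abnormal brightness, or retests that disagree; inactive means below 50% or failed in later tests; about a fifth of its hits are not listed in these tables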;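 further: calls also rest on retests at 20 µM and on dose response follow-up; 0% = protein and probe with vehicle and 100% = probe without protein; strong numbers were not always called active; many hits fall short of the cut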
Rce1 inhib = blocks yeast Ras-converting enzyme; yeast membranes, quenched prenylated peptide cleavage fluorescence; calls only; AID 2563; 290,000 tested, 0.27% active;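 active means fall in fluorescence gain of 50% or more versus controls, with final raw signal at or below 3038400; inconclusive means same 50% fall but final raw signal above 3038400; inactive means fall in fluorescence gain under 50%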;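 further: plate controls were neutral control wells for no effect and wells lacking membranes for full effect; tested at 10 µM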
Target sequence (Q03530 whole entry, looked up): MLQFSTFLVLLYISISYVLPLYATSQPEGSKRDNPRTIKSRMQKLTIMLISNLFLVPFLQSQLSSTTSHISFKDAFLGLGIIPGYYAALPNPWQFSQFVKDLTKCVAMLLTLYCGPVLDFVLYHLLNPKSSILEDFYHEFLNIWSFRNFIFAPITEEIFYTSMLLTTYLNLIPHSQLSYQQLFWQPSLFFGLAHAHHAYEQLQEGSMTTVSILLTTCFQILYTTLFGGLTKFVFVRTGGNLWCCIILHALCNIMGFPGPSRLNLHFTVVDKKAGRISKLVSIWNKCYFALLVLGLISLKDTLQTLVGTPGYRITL
MT1-MMP act inh = MT1-MMP (human) activation inhibition; HT1080 RFP-PRO-GFP cells, GFP/RFP ratio fluorescence, overnight; percent of plate control window, DMSO zero; 360,000 tested, 0.061% active; GFP/RFP ratio change, % at 20 µM;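 active means GFP/RFP ratio change of at least 30% with cell ATP level not reduced by more than half and red fluorescence within 50% of control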; further: strong numbers were not always called active
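Assay system: RFP-PRO-GFP reporter HT1080 cells; read-out basis: GFP/RFP fluorescence ratio; benchmarks: DMSO wells and RFP-L50D-GFP cells; doses: 20 µM single dose, 1% DMSO; schedule: overnight cell settling, then overnight compound exposure, 37 °C, 5% CO2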
eIF4H inh retest = also measured in eIF4H inh; calls as there; inhibition, %; compound at 20 µM; confirmation average;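 mean of two retest wells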
PABP polyA inh retest = recorded beside PABP polyA inh, whose call it bears; inhibition, %; compound at 20 µM; confirmation repeats;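 mean of two retest wells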
MT1-MMP act inh RFP = also measured in MT1-MMP act inh; calls as there; RFP signal change, %; measured here: RFP expression control read;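 0 = vehicle wells; hits needed this value within 50% of zero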
Active calls of the source: *; i = inactive; ? = inconclusive; . = no result given. An excerpt, so the mix of outcomes need not match the whole.

SMILES	CSC inhib	Env fusion inh	PABP polyA inh	Yeast UUG start	eIF4H inh	Rce1 inhib	MT1-MMP act inh	MT1-MMP act inh RFP	others
COc1ccc(/C=C\c2onc(C)c2S(=O)(=O)N2CCC(C(=O)NCCC(C)C)CC2)cc1	0	-91	8	-13	-3	i	-1	-15
CCc1ccccc1NC(=O)c1nnn(CC(=O)Nc2ccccc2C)c1N	.	-22	-11	-12	-10	i	1	1
Cc1c(NC(=O)COC(=O)/C=C/c2cccc(Cl)c2)c(=O)n(-c2ccccc2)n1C	0	.	.	11	.	.	0	3
N#Cc1ccsc1NC(=O)COC(=O)CCCSc1nc2ccccc2s1	0	30	122*	-27	102*	i	-11	5
CC(=O)Nc1ccc(S(=O)(=O)NC(C)CCc2ccccc2)cc1 (stereo not drawn)	-16	-10	-12	1	-15	i	2	-6
CCCN1C(=O)COc2ccc(C(=O)c3ccccc3C(=O)O)cc21	-8	14	-2	.	-6	i	3	4
C=CCOc1ccccc1CNc1ccc2c(c1)OCCO2	12	.	?	.	14	i	-1	-4
CC(=O)Nc1ccc(-c2csc(NC(=O)C3CSC4(C)CCC(=O)N34)n2)cc1 (stereo not drawn)	-5	-14	.	-11	.	i	-1	-3
Cc1ccc(-c2cc(C(F)F)n3ncc(C(=O)Nc4c(C)nn(Cc5c(Cl)cccc5Cl)c4C)c3n2)cc1	15	-22	-1	-11	-6	i	-9	-10
CC(=O)c1ccc(NC(=O)CCNS(=O)(=O)c2cc(Br)cnc2N)cc1	-1	7	8	-13	0	i	-2	2
CCN(CC)CCN(C(=O)c1ccc2ccccc2c1)c1nc2ccc(OC)cc2s1	12	10	8	-2	-13	i	-2	3
Cc1cc(N2CCN(C)CC2)ccc1NC(=O)c1cccc(S(=O)(=O)N2CCc3ccccc3C2)c1	54	-4	17	8	-13	i	-2	-1
CC(C)OC(=O)Cn1c(=O)sc2ccccc21	-6	0	8	-18	-4	.	-6	4
COc1cc(/C=C/c2nnc3c4ccccc4ncn23)cc(OC)c1OC	-1	13	16	.	-10	i	2	-7
COc1ccccc1C(=O)N1CCCC(C)(C(=O)NS(=O)(=O)C2CC2)C1 (stereo not drawn)	.	-49	.	-18	.	.	4	3
O=C(CNCc1ccccc1Cl)NCc1ccco1	-13	2	4	.	8	i	-6	2
O=C(CCC(=O)Nc1ccccc1)NNC(=O)C(c1ccccc1)c1ccccc1	6	-4	-1	-13	-26	i	1	5
O=C(O)CCC(=O)NNC(=O)c1ccc(-c2ccccc2)cc1	.	.	-5	-6	-5	i	7	2
CC(=O)OCC(COC(C)=O)OC(C)=O	14	.	.	-15	.	.	1	3
O=c1[nH]c(Nc2ccc3c(c2)OCCO3)nnc1Cc1ccc(Cl)cc1	12	3	-1	-12	-2	.	2	1
CCn1c2ccccc2c2cc(CNCc3ccc(OC)cc3OC)ccc21	-1	56*	0	.	-9	i	-5	-18
COc1ccccc1Oc1ccc(NC(=O)c2ccccc2C)cc1	-7	-7	0	.	-6	i	2	-5
CCN1C(=NCCCOC(C)C)N[C@@H](c2ccccc2)[C@H](C(=O)OC)[C@H]1C	-9	23	.	12	.	.	0	3
CCC(C)NC(=O)c1nn(C)c(=O)c2ccccc12 (stereo not drawn)	-9	-1	-6	.	1	i	2	5
Cc1ccc(-n2ncc(C(=O)O)c2C2CCN(C(=O)OC(C)(C)C)CC2)cc1	1	.	13	-11	1	i	0	-2
COc1ccc([N+](=O)[O-])cc1C1NN=C(c2cccc3ccccc23)S1 (stereo not drawn)	-9	.	0	.	-10	i	3	5
COc1ccccc1OCCCn1c(C)c(C#N)c2ccccc21	-8	49	-4	-18	-6	.	-7	-1
CCOc1cc(CNCC(O)c2ccccc2)cc(Cl)c1OC (stereo not drawn)	6	-12	6	-2	-10	i	1	6
Cc1ccccc1NC(=O)c1cccc(NC(=O)c2ccccc2C(=O)O)c1	-8	-14	.	.	.	i	6	3
CCN(CC)CCN1C(=O)C(O)=C(C(=O)c2cccs2)C1c1ccc(C)o1 (stereo not drawn)	14	-146	10	-14	-2	i	-4	7
CCN1CCN(CCCNC(=O)c2cn(CCOC)c(=O)c3c2c2ccccc2n3C)CC1	8	.	6	-13	-5	i	1	3
CC(C)CCn1cnc2c1c(=O)[nH]c(=O)n2Cc1ccccc1	.	10	0	-6	-2	i	-2	-3
CCCCc1c(C)c2ccc(OC)c(/C(C)=N\O)c2oc1=O	-2	.	0	.	-5	i	-1	-6
COc1ccc(-c2nn(CCC(=O)O)cc2/C=C/C(=O)O)cc1[N+](=O)[O-]	-15	11	2	.	-6	i	3	2
COc1ccc(Oc2coc3cc(OCC(=O)N4CCCCC4)ccc3c2=O)cc1	-3	.	3	.	7	i	.	.
Cc1ccc(CNC(=O)c2ccc(N(C)C)cc2)cc1	0	-8	-3	.	-2	i	0	0
COc1ccc(NC(=O)COC(=O)CNS(=O)(=O)c2ccc(C)cc2)c(OC)c1	.	-15	5	.	-3	i	-1	4
CCOC(=O)C1(CCOC)CCN(C(=O)Cc2ccc3ccccc3c2)CC1	-5	-4	-8	-6	8	i	-2	-4
Cc1ccc(Cl)cc1NS(=O)(=O)c1c(C)[nH]c(=O)[nH]c1=O	4	-23	-3	-14	-6	i	10	3
CC(Oc1cc2oc(=O)c3c(c2cc1Cl)CCC3)C(=O)NCCN1CCOCC1 (stereo not drawn)	-17	4	8	-13	-6	i	0	2
COc1ccc(NC(=O)CCn2nc(C)cc2C)cc1	-4	.	-4	-24	4	i	2	4
CN(c1ccccc1)S(=O)(=O)c1cccc(NC(=O)C2CCCO2)c1 (stereo not drawn)	-7	-5	.	4	.	.	2	1
COc1ccc(CNCC(O)(c2ccc(Cl)cc2)c2ccc(Cl)cc2)cc1OC	.	63*	-2	-5	-3	i	-7	-9
Cn1c(CSCc2ccccc2Cl)nnc1SCC(=O)Nc1nccs1	.	.	-3	-18	-7	i	-5	-18
NC(=O)c1c(NC(=O)Cc2cccs2)sc2c1CCC2	-5	.	-3	-24	5	i	-3	-6
N#C/C(=C\Nc1ccc(F)c(Cl)c1)C(=O)C1CC1	-5	-5	-6	-13	-3	i	1	0
CC1(C)CC(N(Cc2ccco2)C(=O)Cc2ccccc2)CCO1 (stereo not drawn)	-4	.	11	0	2	i	0	5
CCn1cc(CNC(=O)CCc2ccc(OC)cc2)cn1	-7	.	2	-11	-4	i	3	5
COC(=O)C1=C(C)NC2=C(C(=O)C(C(=O)OC)C(c3ccc(OC)cc3)C2)C1c1ccccn1 (stereo not drawn)	-5	-4	2	5	-1	i	1	-2
CCOC(=O)C1CCN(C(=O)CCS(=O)(=O)c2ccc3c(c2)CCN3C(C)=O)CC1	-8	9	-5	15	2	i	0	1
O=C(Nc1ccnc(-c2ccncc2)n1)c1ccccc1Cl	-9	8	1	.	-4	i	2	3
COc1ccc(NS(=O)(=O)c2ccc3oc(SC)nc3c2)cc1	-5	13	6	0	-10	i	-1	-10
CC(=O)Nc1nonc1-c1nc2ccccc2n1N(C(C)=O)C(C)=O	-8	-49	15	-17	26	i	-7	9
Cc1ncc(C)c2c([N+](=O)[O-])cccc12	.	23	.	-27	.	.	-2	2
O=S(=O)(Nc1ccccc1)c1cccc2nsnc12	-18	15	31	-28	71*	i	4	-1	eIF4H inh retest=70*;PABP polyA inh retest=39
CC(OC(=O)c1cc(Cl)ccc1[N+](=O)[O-])C(=O)NC(C)c1ccc(F)cc1 (stereo not drawn)	-2	18	-7	.	-4	i	4	2
CCNC(=S)N1N=C2c3ccccc3CCC2C1c1ccc(F)cc1 (stereo not drawn)	82*	-9	-8	-28	-3	i	1	0
O/N=C/c1cccnc1Sc1ccccc1	-4	13	-21	.	-4	i	0	2
Cc1ccc(OCC(O)CN2CCN(c3ccccc3)CC2)cc1 (stereo not drawn)	23	5	-9	-3	0	i	-3	-3
CCOc1ccc(CN(C(=O)c2ccco2)C2CCS(=O)(=O)C2)cc1 (stereo not drawn)	-10	.	-2	-16	1	i	-2	1
(more compounds)
SMILES	CSC inhib	Env fusion inh	PABP polyA inh	Yeast UUG start	eIF4H inh	Rce1 inhib	MT1-MMP act inh	MT1-MMP act inh RFP	others
CC(C)(C)C(=O)NC(=S)NNC(=O)c1ccncc1	3	5	-5	1	11	i	2	9
COc1cc([N+](=O)[O-])ccc1NC(=O)CN1CCOCC1	10	-12	1	-17	-1	i	-1	2
CC(C)(C)NC(=O)C1(C)CCC(=O)N1CCCn1ccnc1 (stereo not drawn)	.	9	.	-17	.	.	1	0
COC(C(=O)Nc1ccnn1C1CCN(Cc2ccc(Cl)s2)CC1)c1ccccc1 (stereo not drawn)	-4	6	-8	-10	-2	i	-3	-1
CC(=O)Nc1ccc(C(=O)NNC(=O)C2CC2)cc1	-12	-204	4	-10	-5	i	-1	4
CCOC(=O)c1cnc(-c2ccccc2)nc1Oc1ccc(C)cc1	.	.	3	-10	-1	i	-2	-4
CN(C)S(=O)(=O)c1ccc(Cl)c(C(=O)NCCNC(=O)c2cc(S(=O)(=O)N(C)C)ccc2Cl)c1	-2	-27	-13	.	-2	i	0	2
CCOC(=O)N1CCN(C(=O)COc2cc(=O)n(C)c3ccccc23)CC1	-3	-9	11	-30	7	i	7	8
O=C(Nc1ccc(Cl)cc1)P(=O)(O)c1ccccc1	.	24	.	-22	.	.	2	7
Cc1ccc(S(=O)(=O)NNC(=O)c2cccs2)c(C)c1	.	24	-1	-35	-4	i	-4	0
COc1ccccc1CN1CC(C(=O)NCCc2cn[nH]c2)CCC1=O (stereo not drawn)	10	.	27	-18	-16	i	-2	3
Cc1sc2ncn(-c3ccccc3)c(=O)c2c1C	-5	-16	-2	.	-2	i	2	5

3 compounds already listed, sorted by molecular weight, falling:
SMILES	CSC inhib	Env fusion inh	PABP polyA inh	Yeast UUG start	eIF4H inh	Rce1 inhib	MT1-MMP act inh	MT1-MMP act inh RFP	others
Cc1ccc(S(=O)(=O)NNC(=O)c2cccs2)c(C)c1	.	24	-1	-35	-4	i	-4	0
CC(C)(C)NC(=O)C1(C)CCC(=O)N1CCCn1ccnc1 (stereo not drawn)	.	9	.	-17	.	.	1	0
COc1cc([N+](=O)[O-])ccc1NC(=O)CN1CCOCC1	10	-12	1	-17	-1	i	-1	2

Carrying on:
SMILES	CSC inhib	Env fusion inh	PABP polyA inh	Yeast UUG start	eIF4H inh	Rce1 inhib	MT1-MMP act inh	MT1-MMP act inh RFP	others
Cc1[nH]c2ccccc2c1N=Nc1ccccc1F	58	4	-2	.	-4	i	0	-2
COc1ccc2[nH]c(=O)c(CN(C(=O)c3ccncc3)C(C)C)cc2c1	-14	.	-14	.	1	i	3	5
O=C1CC(c2cccc(Cl)c2)CC(O)=C1C=NC1CCCC1 (stereo not drawn)	-2	.	-4	-12	-6	i	6	3
CCc1nnc(NS(=O)(=O)c2ccc(NC(=O)COc3ccc4ccccc4c3)cc2)s1	39	4	15	.	19	.	-3	-4
CC(C)(C)c1ccc(NC(=O)COC(=O)c2ccc([N+](=O)[O-])s2)cc1	-4	5	5	6	6	.	1	1
CC(=O)c1cccc(-c2cnc3c(NC=O)cc(-c4ccccc4)cn23)c1	.	-1	.	-11	.	.	4	-8
COc1cccc(Nc2nc(N)nc(-c3oc4ccccc4c3C)n2)c1	.	23	-1	-10	5	i	-7	-18
CN1CCN(C(=O)CN(Cc2ccc(Cl)cc2)S(C)(=O)=O)CC1	-8	.	-5	0	2	.	1	4
COc1cc(CNC(=O)C2CCCN2S(=O)(=O)c2ccccc2)cc(OC)c1OC (stereo not drawn)	-6	-6	11	-7	-1	i	5	5
Clc1ccc(OCCOCCN2CCCCC2)c(Br)c1	25	-9	4	-15	-1	i	-2	4

High-throughput results as filed in PubChem BioAssay.
